High-throughput results as filed in PubChem.
Rango complex inh – prevents formation of the Rango-importin beta complex; 0.031% of 340,000 active; Q14974; Rango CFP/YFP FRET sensor + importin beta, 45 min; Potency, µM (titrated, usually from 92.2 µM), without a hit: at the highest dose inhibition of complex formation; active = rising FRET ratio curve, often small or poorly fitted; inconclusive = mostly compound fluorescence or quenching in the first reads; inactive = flat curves in all reads;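 also: potency is read from the fitted curve at half-maximal effect; 0% = DMSO wells and 100% = buffer wells lacking importin beta; nearly all actives have a fitted effect of over 15% in size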
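FRET biosensor Rango (snurportin 1 IBB between N-terminal EYFP and C-terminal Cerulean), 50 nM in PBS/1 mM DTT/0.02% Tween-20/0.1% BSA, preincubated 5 min RT with compound; 0.125 microM importin beta added, 45 min RT, CFP/YFP FRET ratio read.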
miR-21 reporter – raises the signal of a miR-21 reporter; AID 2288; HeLa miR-21 FLuc reporter, luciferase, 48 h; Potency, µM (doses to about 38.3 µM), inactives show at the top dose reporter change, positive = more light; 340,000 tested, under 10 active; active = well fitted rising curve with a large enough effect; inconclusive = small, poorly fitted or top-dose-only effect; inactive = no such curve, though single readings can be large or run the other way;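 also: % of control where 0% means no effect; miR-21 action dims this reporter so a rising signal means less miR-21 action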
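HeLa miR-21-FLuc reporter line, endogenous miR-21; 2000 cells/well in DMEM/10% FBS; compound titration up to ~40uM final, 48 h, 37 degree Celsius; luciferase detection reagent, 15 min lysis, CCD luminescence.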
GLA inh pH 4.5 – alpha-galactosidase A (human) inhibition, pH 4.5; P06280; purified enzyme, 4-MU-alpha-Gal fluorescence, pH 4.5; activity change, negative = inhibition, % at 105 µM; 230,000 tested, under 10 active; inconclusive = small, poorly fitted or top-dose-only inhibition, or a rising curve; inactive = flat fitted curve, though single readings scatter; no compound was filed as active;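 also: 0% = full activity with enzyme and -100% = basal without enzyme; dose as in the result columns while the protocol names 77 µM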
Target sequence (P06280 whole entry, looked up): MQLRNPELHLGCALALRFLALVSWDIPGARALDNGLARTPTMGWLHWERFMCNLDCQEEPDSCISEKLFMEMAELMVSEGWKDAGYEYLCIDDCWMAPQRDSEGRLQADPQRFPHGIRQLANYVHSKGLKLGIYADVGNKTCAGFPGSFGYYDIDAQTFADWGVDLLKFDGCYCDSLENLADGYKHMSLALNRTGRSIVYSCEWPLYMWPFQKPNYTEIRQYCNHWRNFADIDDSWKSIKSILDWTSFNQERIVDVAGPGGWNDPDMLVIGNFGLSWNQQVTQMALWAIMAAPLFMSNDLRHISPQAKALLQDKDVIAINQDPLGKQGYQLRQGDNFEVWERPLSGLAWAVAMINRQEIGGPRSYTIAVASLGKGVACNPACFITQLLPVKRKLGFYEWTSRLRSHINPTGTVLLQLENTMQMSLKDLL
Rango release inh – prevents RanGTP from dissociating the Rango-importin beta complex. O95149+P62826. Biochemical FRET Rango-importin beta, RanGTP-induced dissociation. Potency, µM (highest dose often 46.1 µM), inactives show at the highest dose activity change, negative = inhibition. 0.071% of 340,000 active. AID 540253; active means falling FRET ratio curve, often poorly fitted, with flat reads before Ran was added; inconclusive means other falling curves, or compound fluorescence or quenching; inactive means flat or rising ratio curve;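 also: potency is read from the fitted curve at half-maximal effect; % of control where 0% means no effect; nearly all actives have a fitted effect of over 45% in size; -100% = wells without RanGTP and RCC1; the record marks most hits as doubtful in a second field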
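Rango (0.1 uM)–importin beta (0.25 uM) complex; RanGTP-RCC1 trigger; 45 min RT; CFP/YFP FRET read.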
An asterisk follows results filed as active; ? = inconclusive; nt = no result given; & = joins results of further samples. These rows are one share of the data; rates above refer to the full screens.

No.	Rango release inh	GLA inh pH 4.5	compound	Rango complex inh	miR-21 reporter
1	0.3%	-2.8	O=C(Nc1nccs1)C1CCCN(S(=O)(=O)c2cccnc2)C1 (centres undefined)	1.9%	8.5%
2	-7.5%	5.1	O=C(O)c1ccccc1-c1ccccc1C(=O)Nc1ccc2c(c1)[nH]c(=O)c1ccccc12	-3.1%	0.8%
3	-3.4%	-1.4	Cc1ccc(S(=O)(=O)NCC(=O)OCC(=O)Nc2cccc(S(=O)(=O)NC3=NCCCCC3)c2)cc1C	3.1%	1.2%
4	?	23.4	Cc1c(/C=N/NC(=O)c2ccccc2O)c2ccccn2c1C(=O)c1ccc(F)cc1	?	-12.1%
5	0.8%	nt	c1ccc2c(c1)-c1nc3ccccc3cc1C2N1CCOCC1 (centres undefined)	-0.6%	nt
6	-7.5%	-8.2	O=C(CC(=O)c1ccccc1)c1ccccc1	1.7%	nt
7	24.6%	-8.5	COc1ccc(-c2nnc(SCC(=O)Nc3cc(S(=O)(=O)N4CCCCC4)ccc3Cl)n2N)cc1	-3.9%	-2.3%
8	-7.2%	1.3	COc1cc(C(=O)NCC(C)C)c([N+](=O)[O-])cc1OC	4.9%	-2.2%
9	3.6%	0.4	CCCS(=O)(=O)N1CCC(C(=O)NCC2CCCO2)CC1 (centres undefined)	-1.1%	-1.0%
10	-16.7%	4.0	O=C(CSc1nncn1-c1cccnc1)N1CCOCC1	0.2%	-13.2%
11	2.2%	-5.0	c1ccc(C2C3=C(CCCC3)Nc3ncnn32)cc1 (centres undefined)	0.1%	-2.1%
12	-7.2%	nt	COc1cccc(CNS(=O)(=O)c2cc(-c3cc(C)no3)ccc2C(C)C)c1	-2.5%	9.8%
13	23.9%	nt	Cc1noc(C)c1NC(=O)Nc1ccc2c(c1)C(=O)N([C@H](C)CO)C[C@H](C)[C@@H](CN(C)C(=O)NC1CCCCC1)O2	0.3%	nt
14	1.0%	-2.6	O=C1CCC(c2ccccc2)N1C(=O)c1cccnc1 (centres undefined)	0.0%	-4.1%
15	-13.0%	0.9	O=C(COC(=O)c1ccc(S(=O)(=O)NCc2ccco2)cc1)NCC1CCCCC1	-2.2%	-5.1%
16	14.2%	nt	O=C(c1cc(Br)ccc1O)N1CCN(S(=O)(=O)Cc2ccccc2)CC1	-3.2%	nt
17	4.2%	-6.1	Clc1ccc(-c2nnc3cccc(Cl)n23)c(Cl)c1	-1.7%	1.9%
18	-8.7%	1.5	O=C(COc1cccc2cccnc12)N/N=C1\SCC(=O)N1CCc1ccccc1	-0.3%	0.6%
19	5.5%	4.4	COc1ccc(NC(=O)c2c(Cl)cnn2C)c(C)c1	-4.4%	-7.2%
20	11.1%	-5.2	COc1ccc(C(=O)N(CC2CCCO2)C(C(=O)NC2CCCC2)c2ccc(C)cc2)cc1OC (centres undefined)	0.6%	-5.1%
21	0.6%	nt	COc1cc(Cl)c(C)cc1NC(=O)CSC1=NCCS1	2.9%	nt
22	37.5%	nt	Cc1cccnc1NC(=O)CCc1nnc2ccc(NCc3ccco3)nn12	-2.4%	0.2%
23	-18.4%	-3.0	CC(=O)N(c1ccccc1)c1c(F)c(F)c(F)c(F)c1F	1.3%	-4.4%
24	-1.3%	4.3	Cc1ccc(-c2csc(N(CCCN(C)C)C(=O)c3ccco3)n2)cc1	-1.0%	-25.5%
25	26.9%	nt	Cc1ccc(C(=O)CCC(=O)OCC(=O)N(C)c2c(N)n(Cc3ccccc3)c(=O)[nH]c2=O)cc1	-2.2%	nt
26	1.3%	6.5	O=C(COC(=O)c1ccc(F)cc1)Nc1ccccc1N1CCOCC1	-0.5%	-7.4%
27	?	-9.2	COc1ccc2nc(Nc3nc(C)c(C(C)=O)s3)sc2c1	?	-33.5%
28	-19.6%	nt	COc1ccc(/C(C)=N/NC(=O)CNC(=O)COc2ccccc2)c(OC)c1	-4.4%	-3.9%
29	-11.4%	nt	CN(CC1CCOCC1)C(=O)CC1C(=O)NCCN1CC(c1ccccc1)c1ccccc1 (centres undefined)	-2.6%	-4.4%
30	-3.7%	nt	CCN1C(=NCC(C)C)N[C@@H](c2cccc(C(F)(F)F)c2)C(C(=O)OC)=C1C	-0.1%	17.4%&18.4%

Fetched by structure from above, 3 records:
No.	Rango release inh	GLA inh pH 4.5	compound	Rango complex inh	miR-21 reporter
10	-16.7%	4.0	O=C(CSc1nncn1-c1cccnc1)N1CCOCC1	0.2%	-13.2%
12	-7.2%	nt	COc1cccc(CNS(=O)(=O)c2cc(-c3cc(C)no3)ccc2C(C)C)c1	-2.5%	9.8%
17	4.2%	-6.1	Clc1ccc(-c2nnc3cccc(Cl)n23)c(Cl)c1	-1.7%	1.9%

Next part.
No.	Rango release inh	GLA inh pH 4.5	compound	Rango complex inh	miR-21 reporter
31	2.5%	2.7	CN(C(=S)Nc1ccc(SC(F)F)cc1)c1ccc(O)cc1	0.0%	-3.7%
32	?	-18.5	O=C(O)CCCN1C(=O)/C(=C/c2ccc(-c3nc4ccccc4s3)o2)SC1=S	?	-12.2%
33	2.7%	nt	CC(=O)Nc1ccc(N(C(=O)c2ccccn2)C(C(=O)NC2CCCCC2)c2ccc(F)cc2)cc1 (centres undefined)	4.1%	-0.1%
34	-5.6%	-8.4	CCOC(=O)CSC1=C(C#N)C(c2ccco2)C(C(=O)Nc2cccc(C(F)(F)F)c2)=C(C)N1 (centres undefined)	1.1%	27.2%
35	14.1%	nt	Cc1ccc(NC(=O)C2CCCN2C(=O)c2cccs2)cc1C (centres undefined)	2.5%	nt
36	?	nt	COC(=O)[C@]1(Cc2ccccc2)N[C@H](CN(C)S(=O)(=O)c2ccc(-c3ccccc3)cc2)[C@@H]2C(=O)N(C)C(=O)[C@@H]21	0.9%	nt
37	10.6%	nt	CCN(CC)c1ccc(Nc2nc(Cl)ncc2Br)cc1	3.4%	-6.5%
38	6.5%	-0.1	COc1ccc(CC(=O)OCC(=O)NC(=O)NC23CC4CC(CC(C4)C2)C3)cc1	-0.7%	-9.1%
39	1.7%	4.7	COc1ccc(Cl)cc1-c1nc(SCC(=O)NCCN2C(=O)CSC2=O)n[nH]1	-0.5%	-12.7%
40	-9.4%	nt	COc1ccc(C(=O)Nc2cc(C)c(NC(=O)c3ccccn3)cn2)cc1	-0.6%	-9.6%
41	-1.0%	nt	CCc1ccc(NC(=O)CNC(=O)[C@@H]2Cc3ccccc3CN2)cc1	-2.4%	-3.8%
42	23.3%	-3.2	COc1cc(NC(=O)c2cccc(C)c2)c(Cl)cc1[N+](=O)[O-]	0.4%	0.1%
43	1.2%	-6.4	CCn1cc(C(=O)NCc2ccc3c(c2)OCO3)c2cc(OC)c(OC)cc2c1=O	-0.2%	-8.6%
44	5.4%	-0.8	N/C(=N\NC(=O)c1ccc(Cl)cc1)c1cnccn1	-1.1%	-37.8%
45	-12.9%	13.5	Cn1cc(S(=O)(=O)N2CCC(Cc3ccccc3)CC2)c(=O)n(C)c1=O	4.5%	-1.3%
46	-8.6%	10.0	COC(=O)N/C(C)=C1/NC(=O)c2ccccc2C(c2ccccc2)N1 (centres undefined)	-0.1%	2.0%
47	0.7%	-6.7	CCOCCCNC(=O)c1cn(C)c(=O)c2cc(OC)c(OC)cc12	-0.5%	-0.2%
48	?	-3.2	CCNc1cccc2c1C(=O)N(C)C2=O	?	0.2%
49	?	1.6	O=c1oc2cc(O)c(Cl)cc2c2ccccc12	?	-17.0%
50	nt	-4.8	COc1cc(C)c(CNc2ccc(OC)c(OC)c2)cc1C	nt	-15.5%
51	-2.0%	nt	Cc1ccc(S(=O)(=O)N2CCCN(C(=O)CNC(=O)c3ccccc3)CC2)cc1	1.1%	nt
52	-8.1%	2.8	c1cncc(-c2nc(NCc3ccco3)c3ccccc3n2)c1	3.5%	11.6%
53	9.8%	2.8	N#Cc1nc(Cc2ccccc2)oc1N1CCN(c2cccc(Cl)c2)CC1	?	-6.2%
54	2.0%	nt	O=C(ONC(=O)C1C2C=CC(C2)C1C(=O)NOC(=O)c1ccccc1)c1ccccc1 (centres undefined)	2.2%	nt
55	4.0%	-9.0	CC(CCO)Nc1nc2c([nH]1)c(=O)n(C)c(=O)n2C (centres undefined)	1.0%	15.3%
56	1.4%	7.4	O=C(Nc1nccs1)c1nc(-c2ccccc2)n(-c2ccccc2)n1	4.0%	-5.2%
57	4.0%	nt	O=C1CN(C(=O)/C=C/c2ccc(Br)cc2)CCN1	3.7%	-16.4%
58	-22.6%	nt	CCN(CC(=O)Nc1cc(Cl)ccc1C)C(=O)C1COc2ccccc2O1 (centres undefined)	4.7%	nt
59	4.8%	-18.2	NCCCn1cnc2ccccc21	-2.2%	-9.9%
60	-14.1%	nt	O=C(CCNC(=O)c1ccccc1Cl)Nc1nc2ccccc2[nH]1	0.9%	nt
61	-8.9%	1.0	Cc1ccccc1C(=O)N1CCN(c2nc(N3CCOCC3)nc(N3CCOCC3)n2)CC1	6.0%	-3.2%
62	26.0%	nt	O=C(Nc1ccc(Oc2ccccc2)cc1)N[C@@H](Cc1ccccc1)C(=O)O	2.9%	1.1%
63	-2.4%	4.7	NC(=O)[C@@H]1CCCN1Cc1nc(Cc2cccc(C(F)(F)F)c2)no1	0.0%	-5.2%
64	8.3%	2.3	O=C(Nc1nnc(-c2ccccc2)o1)Nc1ccc(F)cc1F	-1.4%	-4.7%
65	-9.1%	6.2	Cc1ccc2cc(CCNC(=O)c3ccco3)c(=O)[nH]c2c1C	-3.1%	-60.5%
66	7.5%	nt	COc1cccc(NC(=O)CN(C2=NC3CS(=O)(=O)CC3S2)c2cccc(C)c2)c1 (centres undefined)	-0.2%	6.1%
67	-14.8%	-4.3	Cn1nc(-c2ccccc2)c(C(O)c2ccc(Cl)cc2)c1Cl (centres undefined)	5.6%	-1.0%
68	-3.6%	-0.1	O=C(Cn1cc([N+](=O)[O-])cn1)Nc1nc2ccccc2s1	4.3%	-19.3%
69	-18.4%	-11.1	O=[N+]([O-])c1ccc(/C=C/C2=NN(c3ccccc3)C(c3ccco3)C2)o1 (centres undefined)	2.0%	3.5%
70	-2.1%	7.4	CCC(C)(C(=O)NC1CCCCC1)N(Cc1ccco1)C(=O)c1ccccn1 (centres undefined)	-6.0%	0.6%
71	12.6%	nt	CN1CCN(c2nc(-c3ccc(Cl)cc3)cc(=O)[nH]2)CC1	-1.6%	-1.0%
72	-12.2%	6.1	Cc1no[n+]([O-])c1COc1ccc(/C=C2\NC(=S)NC2=O)cc1	1.0%	10.4%
73	4.9%	nt	N#Cc1ccc(C(CC(=O)O)N2Cc3ccccc3C2=O)cc1 (centres undefined)	0.5%	-1.4%
74	-0.8%	nt	COc1cc(C(=O)NCCC(=O)NCc2c(F)cc(F)cc2F)cc(OC)c1OC	0.8%	-2.0%
75	0.0%	-7.1	CN(C)c1nc(SCCOC(=O)COc2ccc(Cl)cc2Cl)nc(N(C)C)n1	0.0%	-2.6%
76	-4.0%	nt	COc1ccc(N(CC(=O)N2CCN(c3ccccc3F)CC2)S(=O)(=O)c2ccc(C)cc2)cc1	-5.9%	1.4%
77	4.8%	-0.7	O=C(O)c1ccc(NC2=C(n3nnc4ccccc43)C(=O)c3ccccc3C2=O)cc1	5.4%	0.6%
78	-4.6%	4.1	Cc1cc(C)cc(NC(=O)COC(=O)c2cc(C)oc2C)c1	0.7%	-1.0%
79	0.6%	-2.3	CCN(Cc1ccccc1)CC(O)COc1ccccc1 (centres undefined)	-0.1%	-15.0%
80	?	-3.8	CC1=CC(=C(C#N)c2nc3ccccc3s2)C=C(C)N1c1ccc(F)cc1	?	-6.4%
81	1.6%	nt	Cc1ccc(NC(=O)Cn2nc(C(=O)O)c3ccccc3c2=O)cc1S(=O)(=O)N1CCCCCC1	0.1%	nt
82	17.7%	nt	COc1ccc(CC(=O)NC2CCS(=O)(=O)C2)cc1 (centres undefined)	1.3%	nt
83	-9.3%	2.1	CCCc1[nH]n(-c2ccc([N+](=O)[O-])cc2)c(=O)c1C=NCCCn1ccnc1	-3.0%	1.2%
84	3.5%	nt	CC1CCCC(C)N1C(=O)COC(=O)c1cc(S(=O)(=O)N2CCOCC2)ccc1Cl (centres undefined)	1.1%	nt
85	-4.3%	nt	COc1ccc(Nc2nc(-c3ccccc3O)nc3ccccc23)cc1	3.1%	11.5%
86	14.4%	-4.8	COc1ccc2c3c(c(=O)oc2c1OCC(N)=O)CCCC3	-2.7%	-9.7%
87	4.8%	nt	COc1ccc(NC(=O)CNC(=O)c2nn(-c3ccc(OC)c(Cl)c3)c(=O)c3ccccc23)c(OC)c1	1.6%	7.0%
